HPGD inh – inhibitors of human 15-hydroxyprostaglandin dehydrogenase (HPGD). purified HPGD, NADH fluorescence kinetic, PGE2 substrate. Potency, µM, inactives show at the highest dose activity change, negative = inhibition, hits mostly inhibitors. actives 4.3% (n = 150,000). AID 894; active = well fitted inhibition curve with a large enough effect (not every such curve was filed as active); inconclusive = small, poorly fitted or top-dose-only effect, or another doubt; inactive = no such curve, though single readings can be large or run the other way;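 note: top concentration of the series not given in the record; plate controls included wells without enzyme; inactives centre near -10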
Target sequence (P15428 whole entry, looked up): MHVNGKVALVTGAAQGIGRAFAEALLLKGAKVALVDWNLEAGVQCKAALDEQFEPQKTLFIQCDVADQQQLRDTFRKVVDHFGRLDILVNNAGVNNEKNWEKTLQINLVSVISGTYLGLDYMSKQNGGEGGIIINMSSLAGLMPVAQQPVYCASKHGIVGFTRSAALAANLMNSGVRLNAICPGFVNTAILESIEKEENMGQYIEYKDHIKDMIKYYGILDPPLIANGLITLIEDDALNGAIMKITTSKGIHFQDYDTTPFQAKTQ
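NADH formation kinetics: reaction with 30 uM PGE2 and 1 mM NAD+ (final), 20 nM enzyme, Tris-HCl pH 8 with Tween 20, after 15 min compound preincubation at room temperature. Fluorescence change, last versus first of five reads.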
* hit, by the source's call; ? = inconclusive. % is set by controls: 0 for no effect and ±100 for the full control effect; potency is the fitted concentration of half-maximal effect. These rows are one share of the data; the hit share may differ from the screen's.

smiles | HPGD inh
COc1ccc(C2C=C(c3ccc(C)c(C)c3)Nc3ncnn32)c(OC)c1OC (centres undefined) | -6.6%
COc1ccc(S(=O)(=O)N(CC(=O)N2CCN(c3ccccc3)CC2)c2ccccc2)cc1 | -15.7%
CCCCNC(=O)c1onc(CSc2ccc(C)c(C)c2)c1C(=O)O | -16.4%
Cc1c(C(=O)NCc2ccc3c(c2)OCO3)oc2ccccc12 | -15.7%
CCc1ccc(-c2c(C)sc(NC(C)=O)c2C(N)=O)cc1 | ?
CCCN(CCC)C(=O)Cn1ccc(=N)c2ccccc21 | -20.8%
Cc1cc(C)c(N(C(=O)CN2C(=O)c3ccccc3S2(=O)=O)C(C(=O)NCC2CCCO2)c2ccc(F)cc2)c(C)c1 (centres undefined) | -2.7%
CCCC1=C(C(=O)OCC)C(c2ccc(OC)c(CSc3ccccn3)c2)C(C#N)=C(N)O1 (centres undefined) | ?
CC(SCc1ccccc1)C(=O)N/N=C/c1ccc(OCC(=O)NCc2ccco2)cc1 (centres undefined) | -28.0%
COCCNC(=O)/C(C#N)=C/c1ccc(-c2ccc(S(=O)(=O)N3CCOCC3)cc2)o1 | ?
N#C/C(=C\c1ccc(N2CCCCC2)c([N+](=O)[O-])c1)c1nn(-c2ccccc2)c(N)c1C#N | -17.6%
COc1ccc(-c2cnnn2-c2ccc(NC(=O)c3ccco3)cc2)cc1OC | -4.0%
Clc1ccc(CSc2ncnc3c2ncn3[C@@H]2CCCCO2)cc1 | -14.1%
Cc1onc(-c2ccccc2)c1C(=O)N/N=C/C(Br)=C/c1ccccc1 | -14.3%
COc1cc(-c2nnn(CC(=O)N3CCOCC3)n2)cc(OC)c1OC | -14.7%
Cn1cc(-c2nc3cnc(Oc4ccccc4)nc3n(CCC#N)c2=O)c2ccccc21 | -0.6%
O=C(CN(Cc1ccccc1Cl)C(=O)c1ccc(CN2CCOCC2)o1)NCC1CCCO1 (centres undefined) | -3.2%
O=[N+]([O-])c1cccc(C2=NC(c3ccccc3)CO2)c1 (centres undefined) | -8.4%
CCOCC(=O)Nc1nnc(COc2ccc(Cl)cc2)s1 | 11.2µM*
COC(=O)c1ccc(C(NC(=O)OCc2ccccc2)/C(=C/[C@@H](C)C(=O)NCc2cc(C)on2)c2cccnc2)cc1 (some centres undefined) | -6.3%
CCOc1cc(C(=O)NCCCn2ccnc2)cc(OCC)c1OCC | -11.0%
CCCCn1c(=O)[nH]c(=O)c2c1nc(-c1ccsc1)n2Cc1ccccc1 | ?
CCCNC(=O)c1ccc2c(c1)C1C3CCC(C3)C1C(c1ccccc1)N2 (centres undefined) | -20.2%
Cc1[nH]c2ccccc2c1-c1cc(-c2cc(-c3c(C)[nH]c4ccccc34)nc(N)n2)nc(N)n1 | -3.9%
CCOc1ccc(-c2nc(C#N)c(N3CCCCCC3)o2)cc1 | ?
CCCN(CCC)CCCNC(=O)C1c2cc(OC)c(OC)cc2C(=O)N(C)C1c1cccs1 (centres undefined) | -14.3%
O=C(Nc1ccc(Cl)cc1)c1cccc(N2C(=O)C3C4CCC(C4)C3C2=O)c1 (centres undefined) | 31.6µM*
Cc1ccc2c(c1)c(C)cc(=O)n2CCC(=O)O | -16.8%
CCNC(=O)COC(=O)C1C(C(=O)OCC)=C(C)NC(C)=C1C(=O)OCC | -18.1%
Cc1cc(OC(=O)c2ccccc2Cl)cc(=O)n1C | -29.1%
CC(/C=C1\SC(=S)N(NC(=O)c2ccc(C)cc2)C1=O)=C\c1ccccc1 | -9.3%
CCCC(=O)N1CCc2[nH]c3ccccc3c2C1 | -14.3%

Retrieved one by one from the entries so far (2):
smiles | HPGD inh
Cc1ccc2c(c1)c(C)cc(=O)n2CCC(=O)O | -16.8%
O=C(Nc1ccc(Cl)cc1)c1cccc(N2C(=O)C3C4CCC(C4)C3C2=O)c1 (centres undefined) | 31.6µM*

Remaining list, next part.
smiles | HPGD inh
O=C1C2C3C=CC(C3)C2C(=O)N1c1nc2ccccc2s1 (centres undefined) | -14.7%
COc1cccc(C(=O)Nc2ccc(NC(=O)c3ccco3)cn2)c1 | -8.9%
CCOC(=O)c1ccc(-c2ccc(/C=N/NC(=O)CN(c3ccccc3Br)S(C)(=O)=O)o2)cc1 | ?
COc1ccccc1NC(=O)COc1ccc(/C=N/NC(=O)CSCc2cc(C)cc(C)c2)cc1 | -16.8%
Cc1sc2nc(CN3CCOCC3)nc(N3CCC(C(N)=O)CC3)c2c1C | -5.2%
COc1ccc2c(c1OC)C(=O)NC(C)=C(C(=O)OC(C)(C)C)C2O (centres undefined) | -12.2%
COc1cc(NC(=O)CN2C(=O)c3ccccc3S2(=O)=O)c(OC)cc1Cl | 4.1%
COc1ccccc1NC(=O)C1C2C=CC3(CN(Cc4cccnc4)C(=O)C13)O2 (centres undefined) | -2.8%
COC(=O)[C@@]1(Cc2ccccc2)[C@H]2c3cc(C(=O)N(C)C)n(Cc4nc5ccccc5[nH]4)c3C[C@H]2CN1C(=O)c1ccccc1 | -24.4%
Cc1occc1-c1nnc(SCC(=O)N2CC(=O)Nc3ccccc32)n1CC(C)C | -0.7%
O=C(C[n+]1cc(-c2ccc(Cl)c(Cl)c2)n2c1CCC2)OCc1ccccc1 | -11.9%
CCN1CCN(CCCCSc2ccccc2)CC1 | -2.1%
O=C1c2ccccc2S(=O)(=O)N1CC(O)Cn1ccc2ccccc21 (centres undefined) | -19.1%
COc1cccc(OC)c1C(=O)Nc1ccccc1N1CCCC1 | -0.5%
CCN1CCCC1CNCc1cc(OC)c(OC)c(OC)c1 (centres undefined) | -19.6%
N#Cc1nc(-c2ccc(OCc3ccc(Cl)cc3)cc2)oc1N1CCC(C(N)=O)CC1 | ?

Single entries from the entries so far:
HPGD inh result of Cc1sc2nc(CN3CCOCC3)nc(N3CCC(C(N)=O)CC3)c2c1C → -5.2%
HPGD inh result of CCNC(=O)COC(=O)C1C(C(=O)OCC)=C(C)NC(C)=C1C(=O)OCC → -18.1%
HPGD inh result of COc1cccc(OC)c1C(=O)Nc1ccccc1N1CCCC1 → -0.5%

Additional results:
smiles | HPGD inh
CCOC(=O)C(C)On1c(SC(C)C(=O)OCC)nc2ccccc2c1=O (centres undefined) | 2.0%
C[N+](C)(C)CC[N+]1(C)Cc2c(Cl)c(Cl)c(Cl)c(Cl)c2C1 | -3.3%
CCN1C(=O)c2c(C)nc3ccccc3c2C1=O | 4.8%
Cc1nn(Cc2cccc(C(=O)NCC(C)C)c2)c(C)c1Br | -23.4%
CCSC1=C(C#N)C(c2ccc(OC)c(OC)c2)CC(=O)N1 (centres undefined) | 1.5%
CCN(CC)C(=O)CN(c1cc(Cl)ccc1OC)S(=O)(=O)c1ccc(C)c([N+](=O)[O-])c1 | -7.2%
O=C1CC(c2ccccc2)CC(O)=C1C=Nc1ccc(Cl)cc1 (centres undefined) | -18.2%
CCN(CC)c1ccc(/C=C(/C#N)c2nc3ccc(C)cc3[nH]2)c(OC(C)C)c1 | ?
Cn1c(Cc2ccccc2)nnc1SCC(=O)NC1CCCCC1 | -13.6%
Cn1c(=O)c2c(ncn2CC(=O)OCC(=O)Nc2ccccc2Cl)n(C)c1=O | -7.2%
COC(=O)CCCNC(=O)OCc1ccc([N+](=O)[O-])cc1 | -6.2%
COC(=O)c1ccc(C2C(C(=O)c3cc4ccccc4o3)=C(O)C(=O)N2CCCN(C)C)cc1 (centres undefined) | -16.8%
COc1cc(Br)cc2cc(C(=O)NCC3CCCO3)c(=O)oc12 (centres undefined) | -4.8%
O=C(O)Cc1ccc(C(=O)c2ccccc2F)s1 | 15.8µM*
Cc1ccc(C(=O)C(OC(=O)CNC(=O)c2ccc(Cl)cc2)c2ccccc2)cc1 (centres undefined) | -8.1%
CCn1c(SCC(=O)NCc2ccc3c(c2)OCO3)nnc1-c1cccs1 | -12.3%
COc1ccc(S(=O)(=O)N(CCc2ccccc2)CC(=O)NC(C)C)cc1 | -1.2%
Cc1nc2ccc(NC(=O)NCCCO)cc2s1 | -9.2%
Cn1c(=O)[nH]c(=O)c2c1nc(Br)n2CCSc1nc2ccccc2o1 | -28.3%
O=S1(=O)OC(c2ccc(O)cc2)(c2ccc(O)cc2)c2ccccc21 | -0.3%
Cc1ccsc1/C=C1\Oc2cc(OCC(=O)c3ccccc3)ccc2C1=O | -25.4%
CCCCNC(=S)Nc1ccc([N+](=O)[O-])cc1 | -10.1%
O=c1c2[nH]c3ccccc3c2ncn1Cc1cccnc1 | -9.7%
O=C(Nc1cccc(F)c1)N1CC[C@@]2(CCCN(C(=O)c3ccncc3)C2)C1 | 1.0%
Cc1cc(C)c(-c2c(O)c3c(n(C)c2=O)CC(C)(C)CC3=O)c(C)c1 | -9.3%
Cc1ccc(NC(=O)COc2ccc3oc4c(c3c2)CCCC4)nc1 | -11.8%
O=[N+]([O-])c1cccc(-c2nc(-c3cccs3)c(-c3cccs3)[nH]2)c1 | -18.8%
Cc1nc(-c2cccnc2)sc1C(=O)Nc1ccc(F)cc1F | -5.5%
COc1ccc(NC(=O)CN2CCN(Cc3ccc4c(c3)OCO4)CC2)cc1OC | -3.8%
C(=C\c1nnc(-c2cccs2)o1)/c1ccccc1 | ?
COc1ccccc1CNC(=O)C(=O)NCC1OCCN1S(=O)(=O)c1ccc2c(c1)OCCO2 (centres undefined) | -0.5%
O=c1ccn(Cc2ccccc2Cl)cc1 | 0.5%
CN(CC(=O)NCc1ccccn1)S(=O)(=O)c1ccccc1 | -6.2%
CC(C)(C)n1nnnc1C(c1cccc(C#N)c1)N1CCCCCC1 (centres undefined) | 0.2%
O=c1cc(CO)oc(CN2CCN(CCO)CC2)c1O | -8.3%
COc1ccc(OC)c(C(c2nnnn2CC2CCCO2)N2CCN(C)CC2)c1 (centres undefined) | -6.2%
CC(C)CNC(=O)CC(=O)N/N=C/c1cccs1 | -7.8%
CC(C)NC(=O)c1ccc(Sc2ccccc2)c([N+](=O)[O-])c1 | -20.2%
COc1ccc(OCCCN2CCCCCC2)cc1 | -7.0%
Cc1ccc(N(C(C)C(=O)Nc2cc(Cl)ccc2Oc2ccccc2)S(C)(=O)=O)cc1 (centres undefined) | -13.0%
COc1ccc(Cl)cc1NC(=O)N1CCN(C2CCCCC2)CC1 | -6.1%
O=C(NCCCCc1ccccc1)C1CC(c2ccccc2[N+](=O)[O-])=NO1 (centres undefined) | -16.6%
O=C1OCCN1C(=O)[C@H]1[C@H](c2ccc([N+](=O)[O-])cc2)C(c2cccc(Cl)c2)=NN1c1ccc(Br)cc1 | -26.0%
COc1ccccc1NC(=O)CN1CCC(C(=O)c2ccc(F)cc2)CC1 | -5.4%
Cc1cc(C(=O)COC(=O)CN(C)S(=O)(=O)c2ccc(Cl)cc2)c(C)n1Cc1cccs1 | -9.2%
O=C1N(c2ccc(Cl)cc2)C(c2ccc(Cl)cc2)N2CCCN12 (centres undefined) | 4.1%
CCc1ccc(C(=O)NN(C(=O)c2ccc(CC)cc2)C(C)(C)C)cc1 | 25.1µM*
O=C(c1ccc(N2CCCC2=O)cc1)N1CCOCC1 | 22.4µM*

4 structures from above, arranged by length of the SMILES, falling.
smiles | HPGD inh
Cc1cc(C)c(N(C(=O)CN2C(=O)c3ccccc3S2(=O)=O)C(C(=O)NCC2CCCO2)c2ccc(F)cc2)c(C)c1 (centres undefined) | -2.7%
Cc1cc(C)c(-c2c(O)c3c(n(C)c2=O)CC(C)(C)CC3=O)c(C)c1 | -9.3%
COc1ccc(NC(=O)CN2CCN(Cc3ccc4c(c3)OCO4)CC2)cc1OC | -3.8%
O=C(c1ccc(N2CCCC2=O)cc1)N1CCOCC1 | 22.4µM*

(listing goes on)
smiles | HPGD inh
O=C(Nn1c(SCc2cccc([N+](=O)[O-])c2)nc2ccccc2c1=O)c1ccccc1 | -14.5%
CCCCC/C=C\C/C=C\C/C=C\CCCCCCC(N)=O | -2.8%
COc1ccc(Br)cc1C1CC(=O)N2CN(C)CSC2=C1C#N (centres undefined) | 12.6µM*
Cc1scc(C(=O)NNC(=S)NCc2ccccc2)c1C | -7.4%
Cc1ccc(OCC(=O)NNC(=O)C(=O)NC(C)(C)C)cc1 | -0.6%
COCCCNC(=O)CNC(=S)N(Cc1ccccc1F)C1CCCCC1 | -4.1%
Cc1nc2ccccc2c(=O)n1NCc1cccs1 | -15.7%
c1ccc(C2=Nc3ccccc3NC(c3ccccc3)C2)cc1 (centres undefined) | -7.1%
Cc1ccc(C(C)(C)C)c(OCCN2CCCC2)c1 | -2.5%
CO[C@@]1(NC(=O)CSCC#N)C(=O)N2C(C(=O)O)=C(CSc3nnnn3C)CSC21 (some centres undefined) | -2.1%
CCc1nc2oc(C(=O)c3ccccc3)c(N)c2c2c1COC(C)(C)C2 | -7.8%
CC(=O)C1=C(O)C(=O)N(c2cccc(C(=O)O)c2)C1c1ccc(F)cc1 (centres undefined) | ?
COc1ccc([N+](=O)[O-])cc1NC(=O)C(C)Sc1ccc(C)cc1 (centres undefined) | -21.9%
COc1ccccc1N1CCN(Cc2ccc(OC)c(OC)c2OC)CC1 | -1.9%
COc1ccc(OCC(=O)NNC(=O)c2cccc(S(=O)(=O)N(C)C)c2)cc1 | -5.2%
Cc1cnc(NC(=O)COc2cccc3c2OC(C)(C)C3)s1 | 2.3%
Cc1ccccc1CSCc1nc2ccccc2[nH]1 | -13.8%
Cc1cc(NC(=O)COc2ccc(Cl)cc2Cl)n(-c2ccccc2)n1 | -10.2%
CCn1c(=O)c2c(nc3n2CCCN3CCc2ccccc2)n(C)c1=O | -15.2%
COc1ccc(C(=O)NCC(=O)Nc2ccccc2)cc1OC | -9.7%
O=C(NC1CCCCC1)c1nn2c(C(F)(F)F)cc(-c3ccco3)nc2c1Br | -11.9%
CSCCC(NC(=O)c1ccco1)C(=O)OCC(=O)Nc1ncc(Cl)c(C)c1Cl (centres undefined) | -8.9%
